High-throughput results (PubChem BioAssay)
Proteasome disasm = blocks ATP-dependent breakdown of the yeast 26S proteasome. inhibition of disassembly, % (test concentration not listed). AID 751. anti-FLAG beads, GFP-proteasome disassembly, flow cytometry. actives 0.2% (n = 24,000);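 active = above 40%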;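 also: plate controls were ATP control with full disassembly for no effect and ATP-gamma-S intact proteasomes for full effect; higher percent means more bead fluorescence retained so stronger block of disassembly; stock transfer was 100 nL into about 10 µL; wells with too few beads may also be inconclusive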
VCAM-1 rise = enhancers of VCAM-1 display on endothelial cells, cell-based, plate reader, pooled HUVEC, TNFa stimulus (AID 455); actives 0.2% (n = 10,000); HUVEC TNFa-induced VCAM-1 immunofluorescence, plate reader; numbers were filed only for top-ranked candidate wells; augmentation, % at 5 µM;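 active = a compound raising TNF-alpha-driven VCAM-1 surface staining, with its hit status upheld on visual or statistical review; inactive = the rest, including hits rejected on review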;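 also: 0% = TNFa with vehicle and 100% = strongest image-checked hit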
Active calls of the source: *; i = inactive; nt = no result given. The list is partial; rates above refer to the full screens.

Proteasome disasm | VCAM-1 rise | compound
-1.2 | nt | CCSc1nc2c(c(=O)[nH]1)C(c1cccnc1)C(C(=O)OC)=C(C)N2 (stereo not given)
8.3 | nt | CCCNC(=O)CS(=O)Cc1nc(-c2ccccc2C)oc1C (stereo not given)
-1.4 | nt | O=C(Cn1cc2c(n1)CCCC2)NCc1ccccn1
-0.2 | nt | CC(C)CCNC(=O)CCCOc1cc(=O)n(C)c2ccccc12
0.7 | i | CC(=O)[C@@]1(O)CC[C@H]2[C@@H]3C[C@H](C)C4=CC(=O)CC[C@]4(C)[C@H]3CC[C@@]21C
-0.2 | nt | CCC(C)(C(=O)NC1CCCCC1)N(C(=O)C1CCC(=O)N1)c1ccc(C)cc1 (stereo not given)
10.9 | nt | CC1CCCCN1CCNC(=O)c1cc2c(-c3ccccc3F)nn(C)c2s1 (stereo not given)
0.3 | nt | CCOC(=O)C1CCN(C(=O)CSCc2nc(-c3ccc(OCC)cc3)oc2C)CC1
-1.7 | i | COc1cccc(NC(=O)c2ccco2)c1
0.6 | nt | CCN(CCNC(=O)C1CC(=O)N(CCc2ccccc2)C1)c1ccccc1 (stereo not given)
0.1 | i | CCOCC(=O)Nc1nc2c(s1)C(=O)CC(C)(C)C2
0.0 | i | Cc1c(O)c(CN2CCCCC2)cc2c3c(c(=O)oc12)CCC3
-3.1 | nt | Cc1ccc(CCNC(=O)C2CCCN(S(=O)(=O)c3c(C)nn(C)c3C)C2)cc1 (stereo not given)
-0.4 | nt | Cc1nc2ccccc2c(=O)n1NC(=O)c1ccccc1Cl
-0.8 | nt | NC(=O)c1cc(S(=O)(=O)NC2CCCCC2)co1
-0.6 | nt | CN1CCN(C(=O)c2cn(C)c3ccc(S(=O)(=O)N(C)C4CCCCC4)cc3c2=O)CC1
-3.8 | i | COc1ccc(CCNC(=O)CSCc2n[nH]c(=O)[nH]2)cc1OC
0.7 | i | CC(=O)Nc1ccc(NC(=O)c2ccccc2F)cc1
-2.8 | i | Cc1ccc(C)c(NS(=O)(=O)c2ccc(NC(=O)c3ccco3)cc2)c1
-0.3 | nt | O=C(CN1C(=O)C2(OCCCO2)c2ccccc21)NCc1ccccc1
8.6 | i | COc1cc(C2C(C#N)=C(N)Oc3cc(N)ccc32)cc(OC)c1OC (stereo not given)
1.0 | nt | O=C(C1CCC(CNc2c(N3CCCCC3)c(=O)c2=O)CC1)N1CCN(c2ccccn2)CC1 (stereo not given)
5.7 | nt | COc1ccc(OC)c(CCNC(=O)CC2Oc3ccc(C)cc3NC2=O)c1 (stereo not given)
0.8 | i | COC(=O)c1cn(NC(=O)c2cccnc2)c(=O)c2ccccc12
-0.7 | i | CCC(C)NCC(O)COCc1ccc(Cl)cc1 (stereo not given)
-4.9 | nt | Cc1ccc(C)n1-c1ccc2c(c1)COC2=O
-2.3 | i | N#CC1(c2ccccc2)CCC(=NO)CC1 (stereo not given)
0.7 | nt | COc1cccc(C2=NOC(C(=O)N3CCOCC3)C2)c1 (stereo not given)
-1.5 | i | COC(=O)c1ccccc1NC(=O)c1ccc(-c2ccccc2F)o1
-0.2 | nt | O=C(NCCN1CCOCC1)C1CCN(c2nc3ccccc3o2)CC1

Sorted by molecular weight (largest number first): part of the list above.
Proteasome disasm | VCAM-1 rise | compound
10.9 | nt | CC1CCCCN1CCNC(=O)c1cc2c(-c3ccccc3F)nn(C)c2s1 (stereo not given)
-0.2 | nt | CCC(C)(C(=O)NC1CCCCC1)N(C(=O)C1CCC(=O)N1)c1ccc(C)cc1 (stereo not given)
5.7 | nt | COc1ccc(OC)c(CCNC(=O)CC2Oc3ccc(C)cc3NC2=O)c1 (stereo not given)
-0.3 | nt | O=C(CN1C(=O)C2(OCCCO2)c2ccccc21)NCc1ccccc1
-1.5 | i | COC(=O)c1ccccc1NC(=O)c1ccc(-c2ccccc2F)o1
-0.7 | i | CCC(C)NCC(O)COCc1ccc(Cl)cc1 (stereo not given)

Additional entries
Proteasome disasm | VCAM-1 rise | compound
-0.8 | nt | Cn1c(=O)cc(SCC(=O)N2CCCC2)c2ccc(Cl)cc21
-2.3 | nt | O=C(O)C1CCN(S(=O)(=O)N2CCOCC2)CC1
1.0 | i | C[C@H](CCC(=O)O)[C@H]1CC[C@H]2[C@@H]3C(=O)C[C@@H]4CC(=O)CC[C@]4(C)[C@H]3CC(=O)[C@]12C
-0.9 | nt | Cc1cc(Nc2ccc(F)cc2C)n2nc(C)nc2n1
0.3 | i | COc1ccccc1NS(=O)(=O)c1ccc(OC)c(OC)c1
-1.8 | i | CC(NO)C(C)(C)NO (stereo not given)
3.1 | i | COc1cccc(C(=O)Nc2cc(C)c3c(=O)oc4ccccc4c3n2)c1
-3.2 | nt | Cc1ccccc1NC(=O)c1ccc(F)c(S(=O)(=O)N2CCN(c3ccccn3)CC2)c1
1.0 | nt | COc1ccc(S(=O)(=O)Cc2ccc(C(=O)NC3CCCC3)o2)cc1
-1.6 | nt | Cc1ccc(C)c(NS(=O)(=O)c2cc(Br)cnc2N)c1
1.6 | nt | O=C(Nc1ccccc1)N1CCSCC1
-1.4 | nt | CCOC(=O)c1c(C)n(C)c2ccc(OCC(O)CN3CCC(C)CC3)cc12 (stereo not given)
-0.5 | nt | Cc1ccc(CNC(=O)c2cn(C3CCCC3)c(=O)c3c2c2ccccc2n3C)o1
0.7 | nt | Cc1ccc(Cn2nnc3c(=O)n(CC(=O)NCc4ccc5c(c4)OCO5)cnc32)cc1
-1.6 | nt | CCC(C)Sc1nnc(-c2c[nH]c3ccccc23)n1CCOC (stereo not given)
-0.8 | nt | COc1cc2c(cc1OC)CN(S(C)(=O)=O)CC2
0.3 | i | CCn1c(=O)cc(SCC(=O)N2CCOCC2)c2ccccc21
-0.1 | i | N[C@@H](Cc1ccccc1)c1nnc2sc(SCc3ccccc3)nn12
-0.3 | nt | CCc1ccc(C2CC(c3ccc(Cl)cc3)n3nc(N)nc3N2)cc1 (stereo not given)
-0.2 | nt | Cc1cc(C)nc(NS(=O)(=O)c2ccc(N3C(=O)C4CC=C(Cl)CC4C3=O)cc2)n1 (stereo not given)
-2.9 | i | CCOC(=O)c1c(NC(=O)Cn2c(=O)oc3ccccc32)oc(C)c1C(C)=O
0.8 | nt | O=S(=O)(c1cccc(C(F)(F)F)c1)N(CCCN1CCOCC1)Cc1cccs1
0.6 | nt | O=C(Cn1c(=O)oc2cc(S(=O)(=O)N3CCCC3)ccc21)Nc1cccc(C(F)(F)F)c1
-5.3 | i | Cn1c(=O)c2c(nc(N3CCN(c4ccccc4)CC3)n2CCCc2ccccc2)n(C)c1=O
-3.0 | nt | CCCn1c(=N)n(CC(=O)OCC)c2ccccc21
-1.5 | i | O=C(CN1CCCCCC1)OCCN=C1NS(=O)(=O)c2ccccc21
0.1 | nt | O=S(=O)(NCc1cn2ccsc2n1)c1cccs1
0.1 | i | Cc1ccc2c(c1)c1c3n2CC(=C2C(=O)OC(C)(C)OC2=O)NC3CCC1 (stereo not given)
2.5 | i | CC(C)Oc1ccc(-c2nn(-c3ccccc3)cc2/C=c2\sc3ncnn3c2=O)cc1
2.8 | nt | O=C(CCN1C(=O)COc2ccccc21)NCCCN1CCN(c2ccc(F)cc2)CC1

Whole records as entered above. Values in the order: Proteasome disasm	VCAM-1 rise
Shown for CCn1c(=O)cc(SCC(=O)N2CCOCC2)c2ccccc21 = 0.3	i
Shown for Cc1ccc(Cn2nnc3c(=O)n(CC(=O)NCc4ccc5c(c4)OCO5)cnc32)cc1 = 0.7	nt

Following part.
Proteasome disasm | VCAM-1 rise | compound
-0.8 | nt | O=C(O)CC(c1ccc(Cl)cc1)n1cccc1 (stereo not given)
-0.3 | nt | O=C(NCC(c1cccnc1)N1CCN(c2ccccc2)CC1)C1CCCCC1 (stereo not given)
1.1 | nt | N=c1n(CCO)c2ccccc2n1CCOc1ccc(Cl)cc1Cl
-3.0 | i | CCOC(=O)C(C)C1(O)c2ccccc2-c2ncccc21 (stereo not given)
-0.8 | nt | COc1cccc(-n2c(Cc3cc(=O)[nH]c(=O)[nH]3)nnc2SCC(=O)N2CCCC2)c1
-1.4 | nt | O=c1n(-c2ccccc2)c(=O)n2n1CCC2
-1.6 | nt | COCCCNC(=O)c1ccc(N2CCCC2)c(NS(=O)(=O)c2ccc(C)cc2)c1
-0.3 | nt | O=C(O)CCC(=O)c1ccc2c(c1)OCCO2
2.8 | nt | CN(C)c1nc2c(c(=O)[nH]c(=O)n2C)n1Cc1ccccc1Br
0.3 | nt | COc1cccc(-n2ccnc2SCC(=O)Nc2nccs2)c1
-0.4 | i | CC1CCCN(S(=O)(=O)c2ccc(C(=O)Nc3nnc(-c4ccccc4Cl)o3)cc2)C1 (stereo not given)
-0.2 | nt | CCOC(=O)C1CCCN(C(=O)CCCn2nc(C)n3c(cc4sccc43)c2=O)C1 (stereo not given)
2.8 | nt | CCOC(=O)CSc1nnc(Cn2c(=O)sc3ccccc32)n1-c1ccccc1C
-1.7 | i | CC(C)(O)C1=NOC(c2ccccc2)C1 (stereo not given)
-0.3 | i | O=C(C1CC1)N1CCc2cc(Br)cc(S(=O)(=O)N3CCOCC3)c21
-1.3 | i | CCCN1CCN(CCCNC(=O)Cn2ncc3c4ccccc4n(C)c3c2=O)CC1
-0.1 | nt | COc1cc2c(cc1OC)C1=C(C#N)CC/C(=N\S(=O)(=O)c3ccccc3)N1CC2
-0.6 | i | COc1ccccc1OC(=O)c1ccc(SC)cc1OC
4.9 | nt | COc1ccccc1C(=O)NCCn1ccc2ccccc21
1.6 | i | CCC(CC)C1C(C#N)=C(N)Oc2n[nH]c(C)c21 (stereo not given)
-0.2 | i | CC(C)CSc1nc2ccccc2n1CC(N)=O
-1.9 | i | CC(=O)N1CCc2cc(S(=O)(=O)CCC(=O)N3CCN(c4ccccn4)CC3)ccc21
0.3 | i | C=CCC1(O)C(=O)Nc2ccccc21 (stereo not given)
1.1 | nt | CCN1CCCC1CNC(=O)Cn1ncc2c(=O)oc3ccc(C)cc3c21 (stereo not given)
2.8 | i | NC(=O)CCS(=O)(=O)CCN1CCCCC1
-0.1 | i | CCOc1ccc(NC(=O)Cn2nnc(-c3ccccc3F)n2)cc1
-1.6 | nt | COCCCNc1nc(=S)[nH]c2cc(OC)c(OC)cc12
1.2 | i | CC(=O)OCC(=O)c1ccc2ccn(C(C)=O)c2c1
2.0 | i | CC(C)c1ncc(C(O)c2cccc3ccccc23)n1C (stereo not given)
1.2 | nt | COc1cccc(C2=NOC(C(=O)NCc3ccc(F)cc3)C2)c1 (stereo not given)

Of the compounds above, two have a CF3 group.
Proteasome disasm | VCAM-1 rise | compound
0.8 | nt | O=S(=O)(c1cccc(C(F)(F)F)c1)N(CCCN1CCOCC1)Cc1cccs1
0.6 | nt | O=C(Cn1c(=O)oc2cc(S(=O)(=O)N3CCCC3)ccc21)Nc1cccc(C(F)(F)F)c1

Next part:
Proteasome disasm | VCAM-1 rise | compound
-0.4 | nt | CCOC(=O)c1[nH]c(C)c(CN(CCc2ccc(OC)c(OC)c2)C(=O)CCCC(=O)O)c1C
-0.6 | nt | CC1CCOC2(O1)C(=O)N(CN1CCN(c3ccccc3F)CC1)c1ccccc12 (stereo not given)
-0.6 | nt | O=C(NCc1cccnc1)C1CCN(S(=O)(=O)c2cccs2)CC1
1.3 | i | C=CCn1c(COc2cccc(C)c2)nnc1SCC(=O)NC(=O)NCc1ccco1
0.5 | nt | CN1C(=O)CC(N2CCC(c3nc4ccccc4[nH]3)CC2)C1=O (stereo not given)
-1.8 | nt | CC1CCCCN1c1nnc(N)s1 (stereo not given)
-2.3 | i | O=C(Nc1ccccc1N1CCCCC1)c1ncoc1-c1ccc(F)cc1
-3.8 | nt | COc1ccc2nc(Nc3ccc4c(c3)OCO4)sc2c1
18.6 | nt | CC(C)C(=O)N1c2ccccc2NC2=C(C(=O)CCC2)C1c1ccc(N(C)C)cc1 (stereo not given)
-0.1 | nt | Cc1ccnc(Nc2nc3ccccc3o2)n1
-2.9 | i | CN1CC(=O)N(CC(=O)NCCc2ccc(F)cc2)c2ccccc2C1=O
-1.6 | nt | COc1cccc(-c2nc3n(n2)C(c2ccc4c(c2)OCO4)C(C(N)=O)=C(C)N3)c1 (stereo not given)
0.3 | i | CSCCC(NC(=O)OC(C)(C)C)C(=O)NC(CC(C)C)C(N)=O (stereo not given)
-0.3 | nt | CCCC12CN3CC(C)(CN(C1)C3c1ccc(OC)cc1)C2=O (stereo not given)
1.4 | nt | CCN(CC)CCCNC(=O)c1cc(-c2cccc(Cl)c2)on1
-3.0 | i | O=C(Nc1ccc(Cc2ccncc2)cc1)C1CC1
0.6 | nt | Cc1nc2ncnn2c(C)c1Cc1ccc(Cl)cc1F
0.3 | nt | Cc1ccc(N(CC(=O)Nc2ccc3c(c2)OCCO3)S(=O)(=O)c2c(C)n[nH]c2C)cc1
9.4 | nt | O=C1OCc2cc(NC(=O)C3COc4ccccc4O3)ccc21 (stereo not given)
-2.8 | i | CC(=O)NCc1cccc(CNC(C)=O)n1
-1.5 | i | CCOc1ccc(NC2c3ccccc3C(=O)N2Cc2ccco2)cc1 (stereo not given)
-0.1 | nt | CCc1ccc(CNC(=O)CN2C(=O)COc3ccccc32)cc1
1.2 | nt | Cc1ccc(C(c2sc3nc(C)nn3c2O)N2CCN(C(=O)c3ccco3)CC2)cc1 (stereo not given)
-1.0 | i | O=C(NCc1ccccc1)C1CCN(S(=O)(=O)c2cccc3cccnc23)CC1
-0.1 | nt | CCOC(=O)CSc1ncnc2c1nnn2-c1ccc(F)cc1
-1.2 | nt | CCOC(=O)c1cccnc1SCc1cc(=O)n2ccccc2n1
